# gsp ag: activates gsp, the McCune-Albright syndrome mutation. Potency, µM (top dose mostly 76.9 µM), for the others: at the highest dose activation (cAMP increase), hits mostly activators. 340,000 tested, 0.13% active. gsp mutant cells, cAMP HTRF, 30 min; control for the full effect not named in the record; active = well fitted activation curve with a large enough effect; inconclusive = small, poorly fitted or top-dose-only effect, or another doubt; inactive = no such curve, though single readings can be large or run the other way; cell line not stated here;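 further: phosphodiesterase inhibitor Ro 20-1724 added with compounds to block cAMP breakdown; potency means the concentration at half of the fitted maximal effect; nearly all actives have a fitted effect of over 60% in size; about a fifth of the inactives were tested at one dose only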
#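 Cells in DMEM/10% FBS with G418 were pretreated with compounds in DMSO plus […] (300 uM stock) for 30 min at 37C. cAMP was measured by HTRF (cAMP-d2 plus anti-cAMP antibody-K) after 30 min at room temperature.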
# ClpP mod: qHTS Assay for Activators of ClpP. ATP-dependent Clp protease proteolytic subunit (Bacillus subtilis (strain 168)), P80244. purified B. subtilis ClpP, FRET peptide cleavage, 20 min. Potency, µM (series often up to 57.5 µM), without a hit: at the top dose activity change, negative = active. 340,000 tested, 1.9% active. AID 651965, 2013; active = well fitted falling curve with a large enough effect; inconclusive = small, poorly fitted or top-dose-only effect; inactive = no such curve, though single readings can be large or run the other way; further: potency means the concentration at half of the fitted maximal effect; the source files actives as falling curves though it sought activators and does not explain the sign; nearly all actives have a fitted effect of over 65% in size; many hits overshoot -100%
# Target sequence (P80244 whole entry, looked up): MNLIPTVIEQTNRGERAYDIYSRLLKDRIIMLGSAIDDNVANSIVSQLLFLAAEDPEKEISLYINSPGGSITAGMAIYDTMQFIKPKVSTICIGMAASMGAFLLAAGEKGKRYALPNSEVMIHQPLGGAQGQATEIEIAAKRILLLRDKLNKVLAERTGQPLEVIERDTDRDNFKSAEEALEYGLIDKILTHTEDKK
#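 ClpP 10 microg/mL final, pH 8 Tris/KCl buffer with BSA, glycerol, Tween-20; compound pinned in; FRET-FV substrate; RT 20 min; Ex320/Em430; ΔFRET vs ADEP 5.8 microM, DMSO, no enzyme.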
# Sfp PPTase inh: Sfp phosphopantetheinyl transferase inhibition. Potency, µM, inactives show max response, negative = inhibition, hits mostly inhibitors. Q9F4F7. 310,000 tested, 3.5% active. Biochemical Sfp PPTase activity, qHTS; active means well fitted inhibition curve with a large enough effect; inconclusive means small, poorly fitted or top-dose-only effect, or another doubt; inactive means no such curve, though single readings can be large or run the other way;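 further: the enzyme is Sfp with the accession as filed and its product quenches rhodamine fluorescence; potency means the concentration at half of the fitted maximal effect; 0% = enzyme reaction without inhibitor and -100% = no enzyme wells; top concentration of the series not given in the record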
#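 Sfp 15 nM + cpd, 15 min RT; start w/ rhodamine-CoA 5 uM, BHQ-2-YbbR 12.5 uM (final); 50 mM Hepes pH 7.6, 10 mM MgCl2, 0.01% NP-40, 0.01% BSA; read 525/598 nm at 0 and 30 min.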
# TRPV1 PAM: potentiators of human vanilloid receptor 1 (TRPV1); Q8NER1; TRPV1-expressing cells, Fluo-8 calcium influx, capsaicin EC20 potentiation; host cell line not named in the record; control for the full effect not named in the record; potentiation, % at 8.33 µM; 320,000 tested, 0.02% active; active means potentiation above 80%; inconclusive means 30% to 80%; inactive means below 30%; further: 0% is about no effect
# Target sequence (Q8NER1 whole entry, looked up): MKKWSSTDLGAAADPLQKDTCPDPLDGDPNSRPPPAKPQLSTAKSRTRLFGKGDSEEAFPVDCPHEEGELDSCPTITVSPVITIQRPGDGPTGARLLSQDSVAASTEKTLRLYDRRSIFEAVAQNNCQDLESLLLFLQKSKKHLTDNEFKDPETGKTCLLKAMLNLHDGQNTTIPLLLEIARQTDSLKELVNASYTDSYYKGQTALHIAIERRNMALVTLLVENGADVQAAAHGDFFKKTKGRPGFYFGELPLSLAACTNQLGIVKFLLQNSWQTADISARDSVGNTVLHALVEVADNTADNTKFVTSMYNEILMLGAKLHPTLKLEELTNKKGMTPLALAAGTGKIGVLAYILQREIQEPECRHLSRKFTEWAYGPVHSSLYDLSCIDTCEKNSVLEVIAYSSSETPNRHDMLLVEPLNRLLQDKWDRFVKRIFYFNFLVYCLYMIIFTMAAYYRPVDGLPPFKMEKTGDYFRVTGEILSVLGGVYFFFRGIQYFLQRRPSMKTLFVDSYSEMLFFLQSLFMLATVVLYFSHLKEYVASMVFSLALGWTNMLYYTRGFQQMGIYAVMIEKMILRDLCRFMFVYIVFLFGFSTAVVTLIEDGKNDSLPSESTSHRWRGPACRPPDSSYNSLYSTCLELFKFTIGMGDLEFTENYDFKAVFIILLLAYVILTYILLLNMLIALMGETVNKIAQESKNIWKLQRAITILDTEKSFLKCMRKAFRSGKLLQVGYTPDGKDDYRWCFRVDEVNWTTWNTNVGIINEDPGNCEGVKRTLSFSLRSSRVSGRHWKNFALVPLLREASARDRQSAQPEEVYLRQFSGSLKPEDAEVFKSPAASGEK
#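 Fluo-8 calcium influx in TRPV1-expressing cells, kinetic read (ex 480/em 520 nm). Compound added and read 3 min for agonist activity, followed by capsaicin at EC20 final and 2 min further read for enhancement.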
# Menin MLL FP FL: displaces fluorescein MLL peptide from human menin. 290,000 tested, under 10 active. FP activity change, % at 61.4 µM. Fluorescence polarization, fluorescein-MLL peptide displacement from menin. AID 1766; inconclusive = falling polarisation curve, or a change in total fluorescence; inactive = total fluorescence flat and polarisation flat or rising; no compound was filed as active; the % refers to the polarisation; negative = inhibition;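 further: % of control where 0% means no effect; inhibitors lower the polarisation; unlabelled MLL peptide was the positive control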
# CtBP-E1A blk: inhibitors of CtBP/E1A interaction; activity change, % (test concentration not listed); AlphaScreen GST-E1A/His-CtBP binding, 1536-well; hits give low values; control for the full effect not named in the record; 340,000 tested, 0.49% active; in the data active means activity change below about -65%; inconclusive means about -30% to -65%; inactive means above about -30%; further: on the % scale 0 is the no-effect control and ±100 the full control effect; compound concentration not given in the record
#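 GST-E1A and His-tagged CtBP (125 nM each as 5X stock) were preincubated with pin-transferred compound for 2 h at 37 °C in the dark, then glutathione donor and nickel acceptor beads were added for 1 h before AlphaScreen reading.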
# gsp antagonist: antagonists of gsp mutant (McCune-Albright syndrome). Potency, µM (top dose mostly 76.9 µM), without a hit: top-dose activity change, negative = inhibition, usual class: inhibitors. 340,000 tested, 0.4% active. gsp-mutant cells, cAMP HTRF, 30 min; control for the full effect not named in the record; active = falling curve of any shape with a large fitted effect; inconclusive = falling curve, mostly with a smaller effect; inactive = flat or rising curve; cell line not stated here;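 further: intracellular cAMP measured with PDE inhibitor Ro 20-1724 present during compound exposure; potency means the concentration at half of the fitted maximal effect; on the % scale 0 is the no-effect control and ±100 the full control effect; nearly all actives have a fitted effect of over 65% in size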
#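 G418-selected cells were plated in DMEM/10% FBS for 16-24 h at 37C, then treated with compounds plus the PDE inhibitor […] (300 uM solution added) for 30 min at 37C. Intracellular cAMP was measured by HTRF after 30 min lysis at room temperature.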
# The depositor's hits bear a star; ? = inconclusive; nt = no result given; & = joins results of further samples; [ ] = remark or other dose.
cpd	Molecule	Sfp PPTase inh	ClpP mod	TRPV1 PAM	CtBP-E1A blk	Menin MLL FP FL	gsp antagonist	gsp ag
1	C[C@H](CO)N1C[C@H](C)[C@H](CN(C)Cc2ccncc2)Oc2ccc(NC(=O)Nc3ccc(C(F)(F)F)cc3)cc2CC1=O	nt	0.7%	nt	-1	nt	1%	1%
2	COc1ccc(-c2cc(C(=O)N(C)CCc3ccc(OC)c(OC)c3)c3ccccc3n2)cc1	-6%	3.1%	?	-10	nt	-8%	6%
3	COc1ccc(/C=C2/SC(=S)N(CCCC(=O)Nc3ccc(O)cc3)C2=O)cc1OC	19%	-0.2%	3	-11	nt	?	-43%[inhibitor]
4	CCC(CC)C(=O)Nc1cccc(C(=O)Nc2nnc(C)s2)c1	24%	nt	3	0	2.6	-2%	-2%[15.4 µM]
5	COc1ccc(NC(=O)CN(C)C(=O)C2(c3ccccc3)CCCC2)cc1	nt	nt	nt	0	nt	-17%	3%
6	O=S(=O)(c1cccc2nonc12)N1CCCCC1	22%	0.9%	21	2	nt	-9%	3%[15.4 µM]
7	O=C(NCCCN1CCCC1=O)Nc1ccc(Br)cc1Cl	-1%	-1.3%	-2	10	4.9	4%	18%
8	CCn1c(=S)[nH]c2sc3c(c2c1=O)CCCCC3	12%	-1.1%	?	37	3.1	-11%	?
9	COC(=O)c1cccc(NC(=O)NC(=O)c2ccc(Cl)cc2)c1	4%	nt	4	-1	-1.3	7%	-10%[15.4 µM]
10	Cc1cccc(C(C)C)c1NC(=O)COC(=O)CCN1C(=O)C2CC=CCC2C1=O (configuration not stated)	13%	0.4%	6	0	nt	-5%	-3%[15.4 µM]
11	COc1ccc(NC(=O)C2=CC(c3ccco3)=NS(=O)(=O)N2C)cc1OC	23%	0.3%&0.7%	24	3	0.0	1%	?
12	Cc1ccc(Cl)cc1N1CCN(C(=O)Cc2c(C(=O)O)[nH]c3ccc(Cl)cc23)CC1	0%	nt	5	-4	2.1	-12%	?
13	CCCN(CCO)Cc1ccc(Br)cc1	-18%	-4.7%	-3	4	2.9	3%	-37%
14	CCOC(=O)N1CCC(N2CCN(S(=O)(=O)c3ccc(OC)cc3)CC2)CC1	4%	nt	-9	10	-0.7	-6%	?
15	CC1(C)Cc2c(sc(NC(=O)Nc3ccccc3)c2C(N)=O)CO1	-26%	-6.1%	-10	nt	5.9	-29%	-1%
16	COc1ccc(C2=C(C=O)Cc3ccccc3O2)cc1	nt	-2.2%	nt	13	nt	-22%	-2%[15.4 µM]
17	CCC(=O)Nc1cccc(C2=NN(c3ccccc3)C(c3ccc(OC)cc3)C2)c1 (configuration not stated)	8%	3.4%	1	nt	0.4	-3%	22%
18	CCOC(=O)CN1C(=O)C(CC)Oc2ccccc21 (configuration not stated)	14%	-0.5%	5	12	4.2	5%	?
19	CC(=O)c1ccc(NC(=O)COC(=O)CCN2C(=O)c3cccc([N+](=O)[O-])c3C2=O)cc1	8%	nt	-5	3	1.5	-16%	17%
20	CC1(C)CC(=O)C2=C(C1)OC(N)=C(C#N)C2c1ccoc1 (configuration not stated)	7%	-0.4%	6	-3	-2.1	4%	?
21	C=CCNc1cnn(-c2ccc(C)cc2)c(=O)c1Cl	2%	?	nt	2	6.1	2%	?
22	CC(=O)c1ccc(NC(=O)Cn2cnc(S(=O)(=O)N3CCc4ccccc43)c2)cc1	13%	nt	2	0	-1.3	11%	19%
23	CCOC(=O)Cn1c2ccccc2c2nc3ccccc3nc21	-9%	-5.6%	-8	7	3.0	20%	6%
24	CCOc1ccc(CC(=O)Nc2nccs2)cc1OCC	-9%	?	-5	3	1.7	5%	-13%[15.4 µM]
25	CCCCn1c(N)c(N(CCOC)C(=O)CN(C)S(=O)(=O)c2ccc(F)cc2)c(=O)[nH]c1=O	nt	1.2%	16	11	nt	17%	-11%
26	CCCOc1ccc(Cl)cc1CNc1ccccc1	-1%	-0.6%	9	35	-7.8	-14%	9%
27	C/C=C/c1ccc(OCC(=O)Nc2cc(C(F)(F)F)ccc2N2CCOCC2)c(OC)c1	-6%	1.1%	28	5	nt	14%	-7%
28	O=C(Nc1cc(C(F)(F)F)ccc1N1CCOCC1)c1cncc(Br)c1	3%	-0.6%	7	4	3.7	-16%	-20%
29	O=C(CN(C(=O)CNC(=O)c1ccco1)c1ccc(F)c(Cl)c1)NC1CCCCC1	5%	nt	-2	3	nt	4%	-3%
30	Cc1onc(-c2ccccc2Cl)c1C(=O)Oc1cccc2cccnc12	-35%	nt	4	?	0.2	nt	-7%[15.4 µM]
31	C=CS(=O)(=O)N(Cc1ccccc1Br)[C@H](CO)CC(C)C	nt	1.1%&-3.4%	nt	-11	nt	6%	nt
32	Cc1ccc(C)c(N2CCN(C(=O)c3csc(C)c3C)CC2)c1	-14%	-1.7%	-16	1	2.0	-5%	-4%
33	COC(=O)c1ccccc1NC(=O)CSc1nnc(COc2cccc(OC)c2)n1C	-1%	-3.4%	?	2	-0.9	-3%	-9%
34	O=C(OCc1ccc(Cl)cc1)c1cccnc1Cl	-7%	nt	-21	15	2.2	nt	9%[15.4 µM]
35	Cc1ccc(S(=O)(=O)CCC(=O)Nc2ccc3c(c2)OCO3)cc1	-75%	-2.2%	-15	0	0.6	-7%	?
36	NC(=O)COC(=O)CSc1cccc2cccc(Cl)c12	12%	nt	-5	3	0.3	-3%	19%[15.4 µM]
37	CCCCC(=O)Nc1ccc(S(=O)(=O)N2CCCCC2c2cccnc2)cc1 (configuration not stated)	7%	-1.8%	0	11	nt	-3%	-3%
38	CC(C)N(Cc1ccccc1)C(=O)CC(=O)N(Cc1ccccc1)C(C)C	9%	nt	-3	0	6.3	-27%	16%[15.4 µM]
39	CCc1ccc(CNC(=O)CCS(=O)(=O)Cc2ccc(C)cc2)cc1	-2%	-3.0%	2	-12	nt	-7%	7%
40	Cc1c(/C(O)=C2/C(=O)C(=O)N(Cc3cccnc3)C2c2cccs2)cnn1-c1ccccc1 (configuration not stated)	-5%	-2.1%	9	2	3.6	2%	?

# A run of entries taken from the entries so far:
cpd	Molecule	Sfp PPTase inh	ClpP mod	TRPV1 PAM	CtBP-E1A blk	Menin MLL FP FL	gsp antagonist	gsp ag
1	C[C@H](CO)N1C[C@H](C)[C@H](CN(C)Cc2ccncc2)Oc2ccc(NC(=O)Nc3ccc(C(F)(F)F)cc3)cc2CC1=O	nt	0.7%	nt	-1	nt	1%	1%
2	COc1ccc(-c2cc(C(=O)N(C)CCc3ccc(OC)c(OC)c3)c3ccccc3n2)cc1	-6%	3.1%	?	-10	nt	-8%	6%
3	COc1ccc(/C=C2/SC(=S)N(CCCC(=O)Nc3ccc(O)cc3)C2=O)cc1OC	19%	-0.2%	3	-11	nt	?	-43%[inhibitor]
4	CCC(CC)C(=O)Nc1cccc(C(=O)Nc2nnc(C)s2)c1	24%	nt	3	0	2.6	-2%	-2%[15.4 µM]
5	COc1ccc(NC(=O)CN(C)C(=O)C2(c3ccccc3)CCCC2)cc1	nt	nt	nt	0	nt	-17%	3%
6	O=S(=O)(c1cccc2nonc12)N1CCCCC1	22%	0.9%	21	2	nt	-9%	3%[15.4 µM]
7	O=C(NCCCN1CCCC1=O)Nc1ccc(Br)cc1Cl	-1%	-1.3%	-2	10	4.9	4%	18%
8	CCn1c(=S)[nH]c2sc3c(c2c1=O)CCCCC3	12%	-1.1%	?	37	3.1	-11%	?
9	COC(=O)c1cccc(NC(=O)NC(=O)c2ccc(Cl)cc2)c1	4%	nt	4	-1	-1.3	7%	-10%[15.4 µM]
10	Cc1cccc(C(C)C)c1NC(=O)COC(=O)CCN1C(=O)C2CC=CCC2C1=O (configuration not stated)	13%	0.4%	6	0	nt	-5%	-3%[15.4 µM]
11	COc1ccc(NC(=O)C2=CC(c3ccco3)=NS(=O)(=O)N2C)cc1OC	23%	0.3%&0.7%	24	3	0.0	1%	?

# (listing goes on)
cpd	Molecule	Sfp PPTase inh	ClpP mod	TRPV1 PAM	CtBP-E1A blk	Menin MLL FP FL	gsp antagonist	gsp ag
41	Cc1cc(C)n2nc(SCC(=O)N3CCCC(C)C3)nc2n1 (configuration not stated)	nt	0.1%	nt	1	nt	-4%	1%[15.4 µM]
42	O=C(CN1C(=O)C2CC=CCC2C1=O)Nc1ccc(OC(F)(F)F)cc1 (configuration not stated)	nt	0.7%	-3	6	nt	11%	17%
43	O=C(Nc1ccc(Cl)cc1)N1CCc2ccccc2C1	79µM*	nt	13	6	-0.6	-7%	4%[15.4 µM]
44	O=C(O)CCNc1cc2ccccc2cc1C(=O)O	?	-1.8%	-9	0	3.0	-4%	-121%[inhibitor]
45	O=C(NN1CCCCC1)c1cccc(COc2ccc(Cl)cc2)c1	-5%	3.2%	-3	-3	4.6	-6%	3%
46	COc1cccc(CNc2ncc(-c3ccccc3)n2C)c1	-23%	nt	-2	-6	6.2	7%	-21%
47	CC(C)(C)S(=O)(=O)N1Cc2cc(=O)n(Cc3ccccc3)c(CCO)c2[C@@H]1CCO	nt	?	nt	-23	nt	5%	nt
48	NC(=S)NN=C(c1ccc(F)cc1)C1CC1	nt	-2.1%	nt	-19	nt	3%	?
49	CCc1cc2c(=O)[nH]c(N3CCCC3)nc2s1	-4%	-1.2%	28	-14	-0.3	0%	2%[15.4 µM]
50	c1ccc(C2Nc3ccccc3Oc3ccccc32)cc1 (configuration not stated)	-15%	0.7%	-6	-8	3.9	?	-19%
51	CCCCNC(=O)Cn1cnc2c(cnn2-c2ccc(C)c(C)c2)c1=O	11%	-23%	-10	-4	5.6	7%	-18%
52	Nc1nc(Nc2ccccc2)nc(NCc2ccco2)c1[N+](=O)[O-]	-15%	-1.3%	5	-22	1.0	-11%	?
53	O=C(NNc1nc(N2CCOCC2)nc(N2CCOCC2)n1)c1ccccc1	nt	-2.4%	nt	10	nt	10%	-3%
54	COc1cc2ccccc2c2c1CCCC2=O	0%	-6.4%	8	-3	-1.4	-11%	-11%
55	COc1cc(C(=O)N/N=C/c2ccsc2C)cc(OC)c1OC	18%	-0.5%	1	-6	-4.7	10%	23%

# Rows are unselected; any-hit rate near 5.3%.
